# Mtb bLac sens: beta-lactam sensitization of Mtb H37Rv; M. tuberculosis H37Rv growth with meropenem, percent inhibition; hits of this screen are not shown here; inhibition, % at 25 µM; 330,000 compounds, 0.27% hits;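 active = about 74% or more and at least 40 points above the plate without the antibiotic, then above 30% in a dose series; inconclusive = first-round hits that could not be retested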;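 also: growth measured after seven days incubation then overnight dye step; 0% = bacteria only wells and 100% = bacteria with antibiotic; twin plates without the antibiotic show which effects depend on it; some results filed as inactive read as strong as hits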
# Mtb H37Rv: M. tuberculosis H37Rv growth inhibitors, H37Rv strain (AID 1626); M. tuberculosis H37Rv growth inhibition; higher % means a stronger effect; inhibition, % at 10 µM; hits with a dose series show IC50 in µM; 220,000 compounds, 0.95% hits;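 active = confirmed in a dose series; inconclusive = inhibition above 80% but not taken into the dose series; inactive = below 80% or under 30% at every dose of the series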;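 also: bacteria incubated seven days before Alamar blue readout; 0% = bacteria only wells and 100% = bacteria with antibiotic wells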
# RecA intein inh: blocks M. tuberculosis RecA intein splicing | P9WHJ3 | cell-free RecA intein splicing, fluorescence | inhibition, %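 (about 9 µM by stock and volumes)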 | 290,000 compounds, 0.75% hits; in the data active = inhibition above about 30%; inconclusive = no clear call, values can overlap the other calls;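 also: 0% = vehicle wells and 100% = reference inhibitor control wells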
# Target sequence (P9WHJ3 whole entry, looked up): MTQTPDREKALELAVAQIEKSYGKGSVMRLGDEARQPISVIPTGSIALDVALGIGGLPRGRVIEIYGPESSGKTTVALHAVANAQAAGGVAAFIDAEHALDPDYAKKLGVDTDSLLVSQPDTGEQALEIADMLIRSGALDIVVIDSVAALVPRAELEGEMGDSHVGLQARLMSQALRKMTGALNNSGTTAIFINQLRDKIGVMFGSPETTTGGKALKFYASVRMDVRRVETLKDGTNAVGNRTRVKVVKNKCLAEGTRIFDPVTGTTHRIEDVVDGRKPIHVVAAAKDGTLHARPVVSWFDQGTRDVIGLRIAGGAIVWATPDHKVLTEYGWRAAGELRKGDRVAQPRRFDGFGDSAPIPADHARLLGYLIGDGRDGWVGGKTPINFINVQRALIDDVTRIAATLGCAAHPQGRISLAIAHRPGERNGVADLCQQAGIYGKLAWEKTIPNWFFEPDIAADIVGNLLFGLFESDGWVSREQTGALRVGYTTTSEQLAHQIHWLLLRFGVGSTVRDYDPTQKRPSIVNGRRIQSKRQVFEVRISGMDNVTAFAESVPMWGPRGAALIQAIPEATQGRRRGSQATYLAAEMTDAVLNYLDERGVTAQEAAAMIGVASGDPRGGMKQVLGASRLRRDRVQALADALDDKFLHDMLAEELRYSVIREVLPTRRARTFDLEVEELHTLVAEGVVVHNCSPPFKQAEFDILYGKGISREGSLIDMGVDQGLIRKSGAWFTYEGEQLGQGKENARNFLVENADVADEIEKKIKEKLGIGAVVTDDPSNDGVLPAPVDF
# YopH inh: inhibitors of Yersinia enterocolitica YopH tyrosine phosphatase; fluorescence Ex485/Em525; inhibition, %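 (about 10 µM by stock and volumes)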; 140,000 compounds, 0.16% hits; AID 898;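 active = inhibition of 50% or more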;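 also: controls were vehicle for no effect and minimum signal wells for full effect; inactives centre near -20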
# Arbovirus anti: antivirals against arbovirus infection; arbovirus infection cell-based antiviral screen; inhibition, % at 10 µM; 200,000 compounds, 0.37% hits; AID 1251;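 active = inhibition from about 30%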;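 also: bluetongue infection of BSR cells; cell survival read as ATP light after 72 h; 0% = infected wells without compound and 100% = uninfected wells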
# Arbovirus anti repeat: second read-out of Arbovirus anti, no call of its own (marks repeat the call); inhibition, %; measured here: 10K subset replicate screen; many hits read low in the repeat;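 first of two repeat runs on a subset; 0% = infected and 100% = uninfected wells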
# * hit, by the source's call; ? = inconclusive; . = not tested or not shown.
SMILES,Mtb bLac sens,Mtb H37Rv,RecA intein inh,YopH inh,Arbovirus anti,others
Cc1ccc(C(=O)C2=C(O)C(=O)N(CCCn3ccnc3)C2c2ccc(OC(C)C)cc2)o1 (stereo not given),-6,-11%,2.2,8,9,
CCCCOC(=O)/C(=C/c1cn(C)c2ccccc12)NC(=O)c1ccc(OC)cc1,1,3%,1.5,-17,1,
CCN(CC)CCC(C)OC(c1ccccc1)c1ccccc1 (stereo not given),-3,6%,2.5,.,10,
O=C1NN(c2ccccc2)C(=O)/C1=C\c1ccc2c(c1)OCO2,-2,.,-3.7,.,.,
Cc1n[nH]c(C)c1N=Nc1cc(Cl)ccc1Cl,2,79%,-0.6,-25,9,
CCCCS(=O)c1snnc1C (stereo not given),3,-3%,-2.1,.,-2,
C/C(=N\NC(=S)NC(C)C)c1ccco1,65,7%,1.9,.,-2,
COc1ccccc1CN(C)C(=O)c1ccccc1Sc1ccccc1C#N,3,.,10.0,.,.,
Cc1c(CC(=O)O)c(=O)oc2cc(OCc3nn[nH]n3)ccc12,-7,-8%,-0.6,-34,6,
COc1ccc(NS(=O)(=O)c2nnc(NC(=O)c3ccccc3F)s2)cc1,11,.,-4.0,.,.,
CCOc1ccc2nc(SCC(=O)Nc3ccc4[nH]c(=O)[nH]c4c3)[nH]c2c1,-1,.,-0.7,.,.,
CCOc1c(Br)cc(C(=O)N2CCCN(C)CC2)cc1OC,2,.,-1.2,.,.,
NNC(=O)c1oc2nc(-c3ccc(Cl)cc3)cc(-c3ccccc3)c2c1N,10,.,-25,.,.,
CCOC(=O)c1cc(-c2ccc(N3CCOCC3)cc2)nn1-c1ccc(F)cc1F,65,56%,2.4,-1,-12,
CN(C)S(=O)(=O)c1ccc2c(c1)nc(CCC(=O)O)n2C,.,5%,.,.,2,
CCOc1cc(/C=N/Nc2nc(C)cc(=O)[nH]2)ccc1O,3,.,-4.5,.,.,
CCN1C(=O)[C@H]2[C@@H](c3ccc(C)cc3)N3C(=O)N(c4cccc(Br)c4)C(=O)[C@@]3(Cc3ccccc3)[C@H]2C1=O,-3,.,9.6,.,.,
[O-][n+]1ccc(C2CC2)cc1,-8,-4%,1.0,-38,6,
O=c1oc2cc(O)ccc2c2ccccc12,96,72%,1.4,-15,16,
CC(CCc1ccccc1)NC(=O)CCc1cn(C)c2ccccc12 (stereo not given),4,.,0.1,.,.,
CC1CC(C)CN(C(=O)CCCNC(=O)c2ccc(Cl)cc2)C1 (stereo not given),-1,.,-0.8,.,.,
O=C(c1ccc(CS(=O)c2ccccc2Cl)o1)N1CCN(c2ccccn2)CC1 (stereo not given),1,.,-0.9,.,.,
CCCCNC(=O)CN(c1cccc(F)c1)S(C)(=O)=O,4,-6%,0.4,-20,0,
O=C(NCc1ccc2c(c1)OCO2)C1(S(=O)(=O)c2ccccc2)CC1,-7,-3%,-1.8,-16,-1,
CCc1ccccc1NC(=O)C1c2ccccc2Oc2ccccc21,0,9%,-2.4,-4,-5,
O=C(O)CN1CCN(C(c2ccccc2)c2ccccc2)CC1,-5,.,0.0,.,.,
O=C(COc1ccc(Cl)cc1)NNC(=O)C(=O)NC1CCCCC1,59,.,0.6,.,.,
CC(=O)N1CCN(c2ncnc3ccccc23)CC1,-5,.,-2.1,.,.,
COc1ccc(N/C=C(/C(C)=O)c2ccccc2)cc1,93,?,-0.7,-36,2,
Cc1ccc(-n2nnnc2SCC(=O)Nc2cccnc2Cl)cc1,-5,3%,3.0,-22,6,
COc1ccccc1CNC(=O)C(=O)NCCC1CCCCN1S(=O)(=O)c1ccccc1 (stereo not given),-8,.,0.3,.,.,
O=C(/C=C/c1cccc([N+](=O)[O-])c1)NC(=S)Nc1ccc(CN2CCOCC2)cc1,4,-17%,-0.6,-40,2,
Cc1ccc(CNC(=O)C(OC(=O)c2ccco2)C(C)C)cc1 (stereo not given),4,3%,0.2,-37,4,
COc1ccc(C(=O)Nc2cnn(Cc3c(F)cccc3Cl)c2)cc1OC,-4,4%,1.9,.,.,
Cc1c(C(=O)NCCN2CCOCC2)oc2ccc(S(=O)(=O)N3CCCCCC3)cc12,5,-9%,2.1,-32,0,Arbovirus anti repeat=1
Cc1ccc(S(=O)(=O)NC(=O)COc2cc(C)ccc2C(C)C)cc1,-2,.,2.5,.,.,
Cc1ccc(CNC(=O)C2CCC(=O)N(Cc3cccc(C(F)(F)F)c3)C2)o1 (stereo not given),-8,.,5.0,.,.,
COc1ccc(C(=O)c2c[nH]c(C(=O)NCc3cccs3)c2)cc1,1,.,-0.2,-20,-7,
CCOC(=O)c1[nH]c2ccccc2c1NC(=O)c1ccc2c(c1)OCO2,0,4%,-1.2,-25,-4,Arbovirus anti repeat=-6
Cc1ccc(S(=O)(=O)N[C@@H](Cc2ccccc2)C(=O)N2CCC(C(=O)N[C@@H](CC(C)C)C(=O)O)CC2)cc1,?,.,-2.4,.,.,
CCN(CC)c1nc(-c2ccccc2)cc(C(F)(F)F)c1C#N,14,0%,-9.1,-43,-7,
CC(=O)N1CCN(c2ccc(NC(=O)c3ccc(F)cc3)cc2)CC1,-10,.,-3.3,.,.,
Cc1cc(C)cc(N(C(=O)c2ccc3c(c2)OCO3)C2C=CS(=O)(=O)C2)c1 (stereo not given),8,-12%,-2.0,-42,-7,
S=C(NCc1ccco1)N/N=C/c1ccc(Cl)cc1,-4,29%,-6.6,-24,1,
CCc1nc(N2CCCCC2C(=O)O)c2oc3ccccc3c2n1 (stereo not given),2,3%,.,.,.,
COC(=O)c1ccc(NC(=O)CO/N=C2\CCCc3nonc32)cc1,-4,-8%,0.8,.,24,
COc1cc(/C=C/C(=O)OCC(=O)NC(=O)NC(C)C)ccc1O,1,-2%,-2.1,.,.,
CCOc1ccc(-n2cc(-c3ccccc3)c3c(N4CCOCC4)ncnc32)cc1,87,?,3.4,.,-24,
CC(C)[C@H](NC(=O)c1ccccc1Cl)C(=O)Nc1nc(-c2ccccn2)cs1,81,7.7µM*,0.8,.,-26,
C/C=C/Cn1c(SC)nc2c1c(=O)[nH]c(=O)n2C,1,7%,0.8,-35,-2,

# Structures from the list above with an NH in an aromatic ring:
SMILES,Mtb bLac sens,Mtb H37Rv,RecA intein inh,YopH inh,Arbovirus anti,others
Cc1n[nH]c(C)c1N=Nc1cc(Cl)ccc1Cl,2,79%,-0.6,-25,9,
Cc1c(CC(=O)O)c(=O)oc2cc(OCc3nn[nH]n3)ccc12,-7,-8%,-0.6,-34,6,
CCOc1ccc2nc(SCC(=O)Nc3ccc4[nH]c(=O)[nH]c4c3)[nH]c2c1,-1,.,-0.7,.,.,
CCOc1cc(/C=N/Nc2nc(C)cc(=O)[nH]2)ccc1O,3,.,-4.5,.,.,
COc1ccc(C(=O)c2c[nH]c(C(=O)NCc3cccs3)c2)cc1,1,.,-0.2,-20,-7,
CCOC(=O)c1[nH]c2ccccc2c1NC(=O)c1ccc2c(c1)OCO2,0,4%,-1.2,-25,-4,Arbovirus anti repeat=-6
C/C=C/Cn1c(SC)nc2c1c(=O)[nH]c(=O)n2C,1,7%,0.8,-35,-2,

# Following part.
SMILES,Mtb bLac sens,Mtb H37Rv,RecA intein inh,YopH inh,Arbovirus anti,others
COC(=O)c1ccc(-c2nn(C)c(=O)c3ccccc23)cc1,0,-6%,2.1,-25,-9,Arbovirus anti repeat=-3
CCOC(=O)C1=C(C)NC(=O)C(C(N)=O)C12CCCC2 (stereo not given),10,-1%,-5.8,-8,0,
Cc1cc(=O)oc2cc(OCC(=O)NCCc3ccccc3)ccc12,1,.,-0.2,.,.,
O=C(Oc1cccnc1)c1cccc(Cl)c1,90,6%,0.2,-4,1,Arbovirus anti repeat=1
O=C(Nc1ccccc1C(=O)O)/C(=C/c1ccc(Cl)cc1Cl)NC(=O)c1ccco1,1,.,0.8,.,.,
Cc1ccccc1-c1nsc(SCC(=O)Nc2ccc3c(c2)OCO3)n1,2,16%,3.9,-33,-10,
Cc1ccc(C)c(NCc2ccccc2CO)c1,2,1%,0.9,.,-2,
O=C(CCCCCN1C(=O)c2ccccc2C1=O)NCCc1nc2ccccc2[nH]1,0,-10%,5.0,-33,1,
COCCNC(=O)C(OC(=O)c1cccs1)c1ccccc1 (stereo not given),-7,-9%,-2.9,-3,4,
CCn1c(SCC(=O)N2CCN(c3ccc(F)cc3)CC2)nc2ccccc2c1=O,25,-1%,2.2,-4,6,
C1CCCN(CCCCN2CCCCCC2)CC1,2,.,3.1,-6,4,
CCN1CCC(NC(=O)c2cc(OC)c(OC)cc2OC)CC1,-18,-2%,-0.2,-32,3,
Cc1cccc(CCNC(=O)Cn2ncc3c([nH]c4ccccc43)c2=O)c1,2,.,-0.4,.,.,
COC(Cc1nnc(SC)n1-c1ccc(Cl)cc1)OC,-15,-2%,0.2,-48,3,
CSCCC(NS(=O)(=O)c1ccccc1F)C(=O)NCc1cccnc1 (stereo not given),-5,.,2.9,.,.,
Cc1ccc(-n2c3c(c(=O)[nH]c2=S)C(C(F)(F)F)(C(F)(F)F)NC(=O)N3)cc1,-1,-8%,3.6,-13,8,
CC(C)(C)c1nnc(NC(=O)Cc2ccccc2[N+](=O)[O-])s1,-3,-1%,1.6,-1,6,
COc1ccccc1NC(=O)CSc1nnc(-c2ccccc2)o1,3,-5%,-0.4,.,6,Arbovirus anti repeat=2
CCN(CC)S(=O)(=O)c1cccc(NC(=O)c2cc(-c3cccs3)nn2-c2ccccc2)c1,10,12%,4.8,-12,-7,
COc1cccc(NC(=O)COC(=O)c2ccco2)c1,0,-2%,-0.2,-25,3,
CCCC(=O)Nc1c(-c2ccccc2)c(=O)c(C)nn1-c1ccc(Cl)cc1,-2,-1%,-1.7,-45,-4,
CCO[C@H]1OC(C(=O)NC2CC2)=C[C@@H](c2ccc(Br)cc2)[C@@H]1CCCO,-3,-12%,-2.1,.,1,
COc1ccc(N2CCN(C(=O)C3CCN(S(=O)(=O)c4c(C)noc4/C=C/N(C)C)CC3)CC2)cc1,-6,.,-2.2,.,.,
O=C(Nc1cccnc1)c1ccc(S(=O)(=O)c2ccc(Cl)cc2)cc1,10,13%,3.5,.,10,
COc1ccc(NC(=O)CSc2ncccc2C(=O)OC(C)C)cc1OC,-14,-9%,0.5,-16,7,
O=C(Cc1cccs1)N/N=C/C(Br)=C/c1ccccc1,-4,6%,-0.3,-11,13,
CN([C@@H](Cc1ccc(OS(=O)(=O)c2cccc3cnccc23)cc1)C(=O)N1CCN(c2ccccc2)CC1)S(=O)(=O)c1cccc2cnccc12,-6,7%,3.2,-25,-8,
COc1ccccc1N1CCN(C(=O)c2ccc(Cl)c(S(=O)(=O)NCc3ccco3)c2)CC1,-9,0%,0.2,4,-1,
CCn1c(=O)c(NC(=O)c2ccccc2)c2n(c1=S)CCCCC2,-11,3%,-5.9,-21,4,
Cn1c(SCC(=O)Nc2ccc(Cl)cn2)nnc1C1CC1,2,.,-4.3,.,.,
CCCCCCCCNC(CO)(CO)CO,-5,-1%,5.0,.,.,
CN(C)CCNC(=O)c1ccc(Sc2ccc(Br)cc2)c([N+](=O)[O-])c1,-11,-6%,-0.1,.,-34,
COc1ccc(-n2nnnc2CNC(=O)C2CC(=O)N(c3ccc(Cl)cc3)C2)cc1 (stereo not given),-6,.,1.0,.,.,
CC1SCC(NC(=O)c2cccc(Cl)c2)CS1 (stereo not given),-4,.,-0.9,.,.,
Cc1csc(NC(=O)CSc2nc(=O)[nH]c3c2CCCC3)n1,0,.,-1.5,.,.,
O=C(CN1CCC(n2nnc3cc(C(F)(F)F)ccc32)CC1)Nc1ccc2c(c1)OCCO2,75,3%,0.3,-10,-14,
Cc1ncc(S(=O)(=O)c2ccccc2)c(-c2ccc(Cl)cc2Cl)n1,-4,1%,0.4,-20,6,
Cc1ccccc1NC(=O)C1CC(Cl)=CCC1C(=O)O (stereo not given),1,-2%,.,-12,3,Arbovirus anti repeat=2
Cc1ccc(S(=O)(=O)C2CCOC2=O)cc1 (stereo not given),-1,-2%,0.3,-24,-2,
CC(/C=C/c1ccccc1)=N\Nc1ccccc1[N+](=O)[O-],5,0%,1.8,.,2,
COCCn1c(SCC(=O)Nc2ccc(Cl)cn2)nnc1-c1ccncc1,2,-6%,-7.3,.,15,
Cc1ccc(C2CC(=O)N3CN(c4ccc(Br)cc4)CSC3=C2C#N)o1 (stereo not given),2,-2%,9.1,-10,9,
CC1=NC(=O)C(N=Nc2ccccc2C(=O)O)N1c1ccccc1 (stereo not given),.,-3%,10,.,18,
CC(C)(C)NC(=O)C(c1ccncc1)N(C(=O)c1csnn1)C1CC1 (stereo not given),-8,-14%,2.1,-34,8,
N#Cc1c(-c2ccc(Br)cc2)nc2n(c1=O)CCCS2,-11,-1%,-2.1,23,-10,

# Screens (PubChem BioAssay)

# A portion of the library, so the mix of outcomes need not match the whole.
